Bioassay records as filed in PubChem BioAssay.
GIRK2 activ: activators of human GIRK2 potassium channels; G protein-activated inward rectifier potassium channel 2 (Homo sapiens), P48051; HEK293-GIRK2 thallium flux, Thallos fluorescence; calls only for hits at 25 µM; 63,000 compounds, 0.05% hits; AID 1259325, 2017;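 active means among the strongest 0.2% of first-round signals and kept after retests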;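 further: first round at about 10 µM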
Target sequence (P48051 whole entry, looked up): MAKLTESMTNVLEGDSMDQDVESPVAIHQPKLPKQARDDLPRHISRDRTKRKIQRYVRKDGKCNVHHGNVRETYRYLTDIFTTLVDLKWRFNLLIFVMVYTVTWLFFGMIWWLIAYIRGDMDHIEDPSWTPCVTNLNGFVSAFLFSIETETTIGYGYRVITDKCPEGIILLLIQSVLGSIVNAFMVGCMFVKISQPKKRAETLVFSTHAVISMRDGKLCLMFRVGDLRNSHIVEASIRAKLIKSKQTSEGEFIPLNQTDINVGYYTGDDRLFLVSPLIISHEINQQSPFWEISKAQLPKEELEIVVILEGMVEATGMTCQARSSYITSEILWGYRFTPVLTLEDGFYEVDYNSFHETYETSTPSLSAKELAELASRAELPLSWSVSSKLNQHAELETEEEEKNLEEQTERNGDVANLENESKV
Calls only; i = inactive.

| SMILES | GIRK2 activ |
| --- | --- |
| O=C(Nc1cc(C(F)(F)F)ccc1Cl)C1COc2ccccc2C1 (centres undefined) | i |
| C=CCC1=C[C@]2(OC)[C@H](C)[C@@H](c3ccc4c(c3)OCO4)O[C@]2(OC)CC1=O | i |
| CC(C(=O)NN1CCOCC1)n1nc(-c2ccco2)ccc1=O (centres undefined) | i |
| CCc1ccc(OC)c(S(=O)(=O)N2c3ccccc3CC2C)c1 (centres undefined) | i |
| COCCn1nnn(-c2ccc(NC(=O)c3ccc(F)cc3F)cc2)c1=O | i |
| Cn1nc(C(=O)NCC2(c3cccs3)CCOCC2)ccc1=O | i |
| Cc1n[nH]c(C)c1CCC(=O)Nc1cc(F)ccc1F | i |
| CC(C)(C)c1csc(CN2CCN(C(=O)CC3CCCCC3)CC2)n1 | i |
| COCCN(Cc1ccncc1)C(=O)c1ccc2nsnc2c1 | i |
| Cn1c(C(F)(F)F)nn(CCNC(=O)CSCc2ccccc2)c1=O | i |
| O=C(Cn1nc(-n2cccn2)ccc1=O)NCc1nc2ccccc2[nH]1 | i |
| O=C(Nc1ccc(C(F)(F)F)cc1)N1CCN(Cc2nnnn2-c2ccccc2)CC1 | i |
| O=C(NCCN1CCOCC1)c1ccc(-n2cccn2)nn1 | i |
| CSc1cccc(NC(=O)Cn2nc3ccc(C(=O)NCc4ccccc4)cn3c2=O)c1 | i |
| COC(=O)c1sccc1S(=O)(=O)NCc1ccc(C(=O)c2cccs2)s1 | i |
| COc1ccc(-c2cc(N3CCCC(C(=O)NCc4cccs4)C3)ncn2)cc1 (centres undefined) | i |
| O=C(c1nnn(-c2ccc(F)cc2)n1)N1CCN(c2ccccc2O)CC1 | i |
| O=C(NCCC(O)c1ccccc1)c1ccc(Cl)c(Cl)c1 (centres undefined) | i |
| CC(C)(Oc1ccc(Cl)cc1)C(=O)NCc1ccc(C(=O)c2cccs2)s1 | i |
| Cc1ccc(C)c(NC(=O)N2CCc3c(c(=O)c4cc(C)cc(C)c4n3C)C2)c1 | i |
| Cn1ccnc1SCC1CCN(C(=O)c2ccc(Cl)s2)CC1 | i |
| Cc1ccc(S(=O)(=O)c2nc(S(=O)(=O)c3ccccc3)sc2Cl)cc1 | i |
| CC(=O)Nc1ccc(NC(=O)CSc2nc3c(-c4ccccc4)c[nH]c3c(=O)n2C2CC2)cc1 | i |
| CCOc1ccc(Br)cc1S(=O)(=O)NCc1ccccn1 | i |
| Cc1ccc2c(Nc3cccc(OC(F)(F)F)c3)c(C(=O)N3CCOCC3)cnc2n1 | i |
| Cc1ccnc(Nc2cc(NCCNC(=O)c3ccccc3Cl)nc(C)n2)c1 | i |
| COc1nn(C)cc1C(=O)Nc1nnc(-c2cc(Cl)sc2Cl)o1 | i |
| Cc1ccc(Cl)cc1N1CCN(C(=O)CCn2cnc3c([nH]c4ccccc43)c2=O)CC1 | i |
| O=C(c1cnccn1)N1CCCC(c2nnc(-c3cccs3)o2)C1 (centres undefined) | i |
| O=C(NCCOc1ccc(-c2ccccc2)nn1)c1ccc(=O)[nH]n1 | i |
| C=CCOC(=O)COc1cc2oc(C)c(-c3ccc4c(c3)OCCO4)c(=O)c2cc1CC | i |
| COC(=O)c1ccc(Oc2coc3c4c(ccc3c2=O)OCN(Cc2cccnc2)C4)cc1 | i |
| O=C(Cc1ccc(Cl)cc1)Nc1cccc(N2CCCS2(=O)=O)c1 | i |
| CC1Cc2ccccc2N1C(=O)C(C)n1nc(-c2ccccc2)ccc1=O (centres undefined) | i |
| COc1cc(NC(=O)NCC(O)c2ccoc2)cc(OC)c1 (centres undefined) | i |
| CCOc1ccccc1-c1noc(-c2nnn(-c3cccc(F)c3C)c2C)n1 | i |
| COc1cc(C(C)=O)ccc1OCC(=O)NCCn1cnc(-c2ccc(F)cc2)cc1=O | i |
| Cn1ccnc1SCC1CCN(C(=O)c2nc3ccccc3s2)CC1 | i |
| COc1cccc(/C=C2\Oc3cc(OCC(C)=O)ccc3C2=O)c1 | i |
| COc1ccc(CC(C)(O)CNS(=O)(=O)c2ccc(Cl)s2)cc1 (centres undefined) | i |
| CSCC(C)(O)CNC(=O)CC(c1ccccc1)c1ccccc1 (centres undefined) | i |
| Cc1cc(C)n(-c2cc(SCC(=O)N3CCN(c4ccccc4)CC3)ncn2)n1 | i |
| O=C(NCC1(CO)CC1)c1ccc(S(=O)(=O)N2CCCC2)cc1 | i |
| CCC(C)NC(=O)CCn1c(=O)c2ccccc2n2c(=O)n(CC(=O)Nc3ccc(Cl)cc3)nc12 (centres undefined) | i |
| CCOc1ccc(S(=O)(=O)NCC2(c3ccc(F)cc3)CC2)cc1C | i |

In another format: entries from further up
O=C(NCC1(CO)CC1)c1ccc(S(=O)(=O)N2CCCC2)cc1
  GIRK2 activ = i
CCC(C)NC(=O)CCn1c(=O)c2ccccc2n2c(=O)n(CC(=O)Nc3ccc(Cl)cc3)nc12 (centres undefined)
  GIRK2 activ = i

Later entries:
| SMILES | GIRK2 activ |
| --- | --- |
| Cc1nc(Nc2ccc(NS(=O)(=O)c3ccc(F)cc3)cc2)cc(-n2ccnc2)n1 | i |
| COc1ccc(OC)c(/C=C(\C#N)c2nc3ccccc3o2)c1 | i |
| CCc1nc(N)n(CC(=O)Nc2cccc(C)c2C)c(=O)c1C | i |
| COc1ccc(-c2noc(-c3sccc3S(=O)(=O)N(C)c3ccc(C)cc3)n2)cc1OC | i |
| CC1NC(=O)CCCNC(=O)C(Cc2c[nH]c3ccccc23)NC(=O)C(C)NC(=O)C(C(C)C)NC(=O)C(C(C)c2ccccc2)NC(=O)C(C(C)C)NC1=O (centres undefined) | i |
| Cc1ccccc1OCC(=O)NCCc1nc(C2CC2)cc(C(F)(F)F)n1 | i |
| O=C(CNCCO)N1N=C(c2ccccc2)CC1c1cn(-c2ccccc2)nc1-c1ccccc1 (centres undefined) | i |
| COc1ccccc1N1CCN(C(=O)Cn2nc3ccc(-c4ccc(C)c(C)c4)nn3c2=O)CC1 | i |
| Cc1ccc(OCC(=O)NCCC(O)C(C)(C)C)cc1 (centres undefined) | i |
| COc1ccc(S(=O)(=O)CC(=O)N2CCC(Oc3nc4ccccc4s3)CC2)cc1 | i |
| Cn1c(C2CCC(CNC(=O)c3ccno3)CC2)nc2ccccc21 (centres undefined) | i |
| CO[C@H]1C[C@@H]2CC[C@@H](C)[C@@](O)(O2)C(=O)C(=O)N2CCCC[C@H]2C(=O)O[C@H]([C@@H](C)C[C@@H]2CC[C@@H](O)[C@H](OC)C2)CC(=O)[C@H](C)/C=C(\C)[C@@H](O)[C@@H](OC)C(=O)[C@H](C)C[C@H](C)/C=C/C=C/C=C/1C | i |
| Cc1noc(C)c1CN1CCN(C(=O)c2cccc(Cl)c2)CC1 | i |
| Cc1ccc2[nH]c3c(=O)n(CCC(=O)NC(C)c4ccccc4)cnc3c2c1 (centres undefined) | i |
| Cc1cc(NC(=O)c2coc(NC(=O)C3CC3)n2)ccc1Br | i |
| CSc1ccc(/C=C2\C=C(CC(=O)N(C)Cc3ccccc3)c3cc(F)ccc32)cc1 | i |
| O=C(CN1CN(c2ccc(F)cc2)c2ncccc2S1(=O)=O)Nc1cccc(Cl)c1 | i |
| CCc1ccc(-n2cc(C(=O)N3CCC(NC(=O)c4cccc(Cl)c4)CC3)nn2)cc1 | i |
| CCOc1ccc(N2C(=O)C3N=NN(CC(=O)Nc4ccc(Br)cc4)C3C2=O)cc1 (centres undefined) | i |
| CCc1ccc(NC(=O)C(=O)NCCc2ccc3c(c2)CCCN3CC)cc1 | i |
| CCc1ccc(CNC(=O)Cn2c(C)nc3c(c2=O)CN(Cc2ccccc2)CC3)cc1 | i |
| Cc1cc(NC(=O)C2CCCCC2)n(-c2nc3c(cnn3-c3ccc(C)c(C)c3)c(=O)[nH]2)n1 | i |
| COc1ccccc1C(=O)NCC1CCN(C)CC1 | i |
| O=S(=O)(NCCC(O)c1cccc2ccccc12)c1cccc(Cl)c1 (centres undefined) | i |
| COc1ccc(CC(=O)NCC(c2cccs2)N2CCOCC2)cc1OC (centres undefined) | i |
| COC(=O)c1ccccc1NC(=O)CN1CCC(c2nc(-c3cccc(C)c3)no2)CC1 | i |
| COc1ccc(-c2nnc(-c3cc(OC)c(OC)c(OC)c3)o2)cc1 | i |
| CCOC(=O)Cc1csc(NC(=O)CN2CCc3nc(NC(=O)C4CC4)sc3C2)n1 | i |
| Cn1cccc(C(=O)Nc2nc3c(s2)CN(S(=O)(=O)C2CC2)CC3)c1=O | i |
| COc1ccc(C(=O)Nc2nc3nc(C)cc(C)c3s2)cc1 | i |
| COc1ccccc1-c1nc(C2CC(=O)N(c3ccccc3)C2)no1 (centres undefined) | i |
| CC1=NS(=O)(=O)c2cc(Cl)ccc2N1 | i |
| Cc1csc(SCC2CCN(C(=O)NCc3ccc(F)cc3)CC2)n1 | i |
| CCOCC(=O)NC(C)Cc1cccs1 (centres undefined) | i |
| O=C(CSC1=NNC2C3CC(c4ccccc4)NN3C=CN12)N1CCCC1 (centres undefined) | i |
| COCCCn1c(C(=O)N2CC(C)CC(C)C2)cc2c(=O)n3cccc(C)c3nc21 (centres undefined) | i |
| O=C(C(=O)N1CCCCC1)c1cn(CC(=O)N2CCOCC2)c2ccccc12 | i |
| COc1ccc(S(=O)(=O)N2CCN(c3cc(C)ncn3)CC2)cc1F | i |
| O=C(c1cc(-c2ccco2)[nH]n1)N1CC(c2nc(-c3ccc[nH]c3=O)no2)C1 | i |
| COc1ccc(CNC(=O)CCCCCn2c(=O)[nH]c3ccsc3c2=O)cc1 | i |
| CCC(=O)Nc1sc2c(c1-c1nc3ccccc3s1)CCN(Cc1ccccc1)C2 | i |
| COc1ccc(N2C(=O)NC3CC2(C)Oc2c(OC)cc(Br)cc23)cc1OC (centres undefined) | i |
| O=C(c1cccc(NS(=O)(=O)c2ccccc2)c1)N1CCN(c2ccccc2)CC1 | i |
| COc1ccc(-c2cc(N3CCN(S(=O)(=O)c4ccccc4Cl)CC3)ncn2)cc1 | i |
| COc1cc([C@@H]2c3cc4c(cc3[C@H](O)[C@H]3COC(=O)[C@H]23)OCO4)cc(OC)c1OC | i |

The list goes on, starting with the last 6 of the part before.
| SMILES | GIRK2 activ |
| --- | --- |
| COc1ccc(CNC(=O)CCCCCn2c(=O)[nH]c3ccsc3c2=O)cc1 | i |
| CCC(=O)Nc1sc2c(c1-c1nc3ccccc3s1)CCN(Cc1ccccc1)C2 | i |
| COc1ccc(N2C(=O)NC3CC2(C)Oc2c(OC)cc(Br)cc23)cc1OC (centres undefined) | i |
| O=C(c1cccc(NS(=O)(=O)c2ccccc2)c1)N1CCN(c2ccccc2)CC1 | i |
| COc1ccc(-c2cc(N3CCN(S(=O)(=O)c4ccccc4Cl)CC3)ncn2)cc1 | i |
| COc1cc([C@@H]2c3cc4c(cc3[C@H](O)[C@H]3COC(=O)[C@H]23)OCO4)cc(OC)c1OC | i |
| O=C(c1ccco1)N1CCN(c2ncc3c(=O)n(Cc4ccccc4)c(=O)[nH]c3n2)CC1 | i |
| CN(C(=O)Cn1cccc(S(=O)(=O)N2CCOCC2)c1=O)c1ccccc1 | i |
| CC(C(=O)NCc1ccco1)n1nc(-c2ccc(F)cc2)ccc1=O (centres undefined) | i |
| O=C1OC(C(=O)Nc2ccc(F)cc2)Cc2ccc(Cl)cc21 (centres undefined) | i |
| CCN(CCCNC(=O)CCc1nnc2ccc(-c3ccc(C)c(C)c3)nn12)c1ccccc1 | i |
| Cc1cc(-c2nnc(NC(=O)COc3ccccc3F)o2)c(C)o1 | i |
| COC(=O)c1sccc1S(=O)(=O)NCC1(c2cccs2)CCOCC1 | i |
| COc1cccc(COc2coc(C(=O)N3CCN(c4ncccn4)CC3)cc2=O)c1 | i |
| O=C(CSc1nnc2scc(-c3ccccc3)n12)NCCc1ccccc1 | i |
| O=c1c2cc(-c3cccc4ccccc34)nn2ccn1Cc1nc(-c2cccs2)no1 | i |
| Cc1cn2c3c(=O)n(Cc4ccccc4F)c(=O)n(C)c3nc2n1C(C)C | i |
| COC(=O)c1ccc2c(=O)n(CC(=O)NCc3cccc(OC)c3)c(=S)[nH]c2c1 | i |
| O=C(NC1CCN(Cc2ccccc2)CC1)c1cn(-c2ccc(F)cc2)nn1 | i |
| C#CCOCC1CCN(C(=O)Cc2noc3ccccc23)CC1 | i |
| COc1ccccc1-c1coc2cc(OCC(=O)c3ccc(Br)cc3)ccc2c1=O | i |
| C[C@@H]1CC[C@]2(C(=O)O)CC[C@]3(C)C(=CCC4[C@@]5(C)C[C@@H](O)[C@H](O)[C@@](C)(C(=O)O[C@H]6[C@H](O)C[C@@]7(C)C(CC[C@]8(C)C7CC=C7[C@H]9[C@](C(=O)O)(CC[C@@H](C)[C@@]9(C)O)CC[C@]78C)[C@@]6(CO)C(=O)O)C5CC[C@]43C)[C@@H]2[C@]1(C)O (some centres undefined) | i |
| COc1ccc(Cl)cc1NC(=O)NCC1(CO)CC1 | i |
| CN1C(=O)CSc2cnn(CC(=O)Nc3c(F)cccc3F)c(=O)c21 | i |
| O=C(/C=C/c1ccc2c(c1)OCO2)N1CC(c2nc(-c3ccncc3)no2)C1 | i |
| COc1ccc(C2c3c(oc4cc(C)c(C)cc4c3=O)C(=O)N2CCCN(C)C)cc1 (centres undefined) | i |
| COc1ccccc1OCC#CCNC(=O)NC(C)C | i |
| COc1cccc(CNC(=O)C(=O)NCC2OCCCN2S(=O)(=O)c2c(C)cc(C)cc2C)c1 (centres undefined) | i |
| CN1CCC(CNS(=O)(=O)CCN2C(=O)CCCC2=O)CC1 | i |
| Cc1noc(-c2cccn(Cc3nc(-c4ccc(F)c(Cl)c4)no3)c2=O)n1 | i |
| CN(CCO)CC1COCCN1C(=O)c1cnc2ccccc2n1 (centres undefined) | i |
| COc1cc(C)c(C)cc1S(=O)(=O)N1CCN(c2ccc3nnc(C)n3n2)CC1 | i |
| COc1ccc(-c2noc(Cn3c(=O)n(CC(C)C)c(=O)c4ccccc43)n2)cc1OC | i |
| CCc1ccc(-c2noc(-c3cn(C)c4ccc(F)cc4c3=O)n2)cc1 | i |
| CCOC(=O)Oc1ccc2c(=O)c(-c3ccc(OC)cc3)coc2c1 | i |
| CC(=O)Cn1c(=O)c2c(nc3n2CCN3c2cccc(C)c2C)n(C)c1=O | i |
| Cn1ccnc1SCC1CCN(C(=O)Nc2ccc3c(c2)OCO3)CC1 | i |

A portion of the library; the hit share may differ from the screen's.
